Rango complex inh – Rango-importin beta binding inhibition. Q14974. Potency, µM (highest dose often 92.2 µM), inactives show at the highest dose inhibition of complex formation. 340,000 compounds, 0.031% hits. Rango CFP/YFP FRET sensor + importin beta, 45 min; active = rising FRET ratio curve, often small or poorly fitted; inconclusive = mostly compound fluorescence or quenching in the first reads; inactive = flat curves in all reads;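 note: potency is the fitted concentration of half-maximal effect; 0% = DMSO wells and 100% = buffer wells lacking importin beta; nearly all actives have a fitted effect of over 15% in size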
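Inhibition scored from the CFP 486 nm/YFP 530 nm FRET ratio 45 min after adding 0.125 microM importin beta to 50 nM Rango biosensor preincubated 5 min with compound (room temperature, PBS with DTT, Tween-20, BSA). No-importin wells as positive control.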
Rango dissoc inh – prevents RanGTP from dissociating the Rango-importin beta complex. AID 540253. O95149+P62826. Potency, µM (top dose mostly 46.1 µM), for the others: top-dose activity change, negative = inhibition. 340,000 compounds, 0.071% hits. Biochemical FRET Rango-importin beta, RanGTP-induced dissociation; active means falling FRET ratio curve, often poorly fitted, with flat reads before Ran was added; inconclusive means other falling curves, or compound fluorescence or quenching; inactive means flat or rising ratio curve;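 note: potency is the fitted concentration of half-maximal effect; % of control where 0% means no effect; nearly all actives have a fitted effect of over 45% in size; -100% = wells without RanGTP and RCC1; the record marks most hits as doubtful in a second field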
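FRET read at 45 min, room temperature: inhibitors block the CFP/YFP signal rise when RanGTP (0.6 uM Ran, 2 mM GTP, 0.2 uM RCC1) frees Rango (0.1 uM) from importin beta (0.25 uM). Pre-read after 5 min compound exposure flags interference.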
GLA inh pH 4.5 – blocks human alpha-galactosidase A at pH 4.5. P06280. 230,000 tested, under 10 active. purified enzyme, 4-MU-alpha-Gal fluorescence, pH 4.5. activity change, negative = inhibition, % at 105 µM; inconclusive = small, poorly fitted or top-dose-only inhibition, or a rising curve; inactive = flat fitted curve, though single readings scatter; no compound was filed as active;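 note: 0% = full activity with enzyme and -100% = basal without enzyme; dose as in the result columns while the protocol names 77 µM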
Target sequence (P06280 whole entry, looked up): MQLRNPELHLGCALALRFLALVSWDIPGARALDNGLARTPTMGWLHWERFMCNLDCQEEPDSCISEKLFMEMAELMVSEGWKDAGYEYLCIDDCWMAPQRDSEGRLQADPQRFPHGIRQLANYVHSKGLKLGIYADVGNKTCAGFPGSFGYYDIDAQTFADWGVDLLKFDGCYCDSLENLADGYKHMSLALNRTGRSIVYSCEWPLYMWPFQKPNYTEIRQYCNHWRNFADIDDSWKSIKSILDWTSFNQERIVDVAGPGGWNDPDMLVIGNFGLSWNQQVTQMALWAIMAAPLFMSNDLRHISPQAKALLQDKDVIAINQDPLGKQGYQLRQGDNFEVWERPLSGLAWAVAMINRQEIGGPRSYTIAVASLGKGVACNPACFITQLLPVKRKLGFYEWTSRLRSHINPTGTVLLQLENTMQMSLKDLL
miR-21 FLuc – raises the signal of a miR-21 reporter | HeLa miR-21 FLuc reporter, luciferase, 48 h | Potency, µM (series often up to 38.3 µM), for the others: at the top dose reporter change, positive = more light | 340,000 tested, under 10 active | AID 2288; active = well fitted rising curve with a large enough effect; inconclusive = small, poorly fitted or top-dose-only effect; inactive = no such curve, though single readings can be large or run the other way;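 note: % of control where 0% means no effect; miR-21 action dims this reporter so a rising signal means less miR-21 action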
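HeLa cells endogenously expressing miR-21, stably carrying CMV-driven firefly luciferase with a downstream miR-21 binding site, 2000 cells/well. Titrations up to approximately 40 uM, 48 hours; luciferase luminescence read.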
* marks the source's active call; other numbers are inactive results; u = inconclusive; x = not tested or not shown; & = joins results of further samples. This is a subset; rates above refer to the full screens.

[1] CN(C)C(CNC(=O)C1CCN(S(=O)(=O)c2ccccc2C(F)(F)F)CC1)Cc1ccccc1 (configuration not stated)
[2] O=Cc1ccc(Oc2cccc(C(F)(F)F)c2)nc1
[3] Cc1nc(NC(=O)c2cncc(Br)c2)ccc1Br
[4] COc1ccc(OC)c(NC(=O)CCCNC(=O)Cn2cnc3sc(C)c(C)c3c2=O)c1
[5] CC(Oc1ccc(C(C)(C)C)cc1)C(=O)NCC(c1ccco1)N1CCCC1 (configuration not stated)
[6] COc1ccc(C(=O)N2CCCC(Nc3ccc(C)c(C)c3)C2)c(OC)n1 (configuration not stated)
[7] Cc1ccccc1Cn1cc(NC(=O)c2cc(-c3cccs3)on2)cn1
[8] O=C(COc1cccnc1[N+](=O)[O-])NCCc1ccc(Cl)cc1Cl
compound no.,1,2,3,4,5,6,7,8
Rango complex inh,3.6%,0.6%,4.5%,-0.4%,-4.3%,-0.2%,-3.1%,3.3%
Rango dissoc inh,-6.5%,5.5%,3.1%,2.9%,59.1%,-3.4%,-5.6%,-9.8%
GLA inh pH 4.5,x,3.3,x,x,x,x,4.7,3.8
miR-21 FLuc,x,-9.1%,-8.8%,0.6%,x,-7.2%,-6.8%,-14.4%

[9] CN1CC(COCc2ccccc2)Oc2ccccc2S1(=O)=O (configuration not stated)
[10] c1ccc(-n2nnnc2-n2ccnc2)cc1
[11] CCOc1ccc(NC(=O)C2CCCN(S(=O)(=O)c3c(C)noc3C)C2)cc1 (configuration not stated)
[12] O=S(=O)(c1cccc2ccccc12)N1CCCCC1
[13] Cc1ccc(C(=O)NC(=S)Nc2ccc(-c3ccc(CO)o3)cc2)cc1
[14] COc1ccc(CNC(=O)CSc2nnc(C)c(=O)[nH]2)cc1
[15] COc1ccccc1CNC(=O)c1ccc(OC(C)C)cc1
[16] CC1=C(C)CC(C(=O)Nc2ccc(C(=O)N3CCOCC3)cc2)C(C(=O)O)C1 (configuration not stated)
compound no.,9,10,11,12,13,14,15,16
Rango complex inh,-0.6%,0.8%,1.1%,-2.0%,-2.0%,3.2%,-0.1%,2.8%
Rango dissoc inh,1.4%,-3.6%,15.6%,14.1%,-7.5%,-16.3%,5.5%,1.2%
GLA inh pH 4.5,x,-3.9,x,x,-5.2,-5.8,1.7,3.8
miR-21 FLuc,x,-3.9%,0.2%,-10.9%,19.0%,-0.8%,-23.9%,6.3%

[17] Cc1ccc(Cl)cc1N1CCN(C(=S)NCCc2ccccc2)CC1
[18] O=C(CSc1ncn(-c2ccccc2)n1)Nc1nc2ccccc2s1
[19] COc1ccccc1CC(NC(C)=O)C(=O)NC1CCN(S(=O)(=O)c2ccc(NC(C)=O)cc2)CC1 (configuration not stated)
[20] COc1ccc(C(=O)CSc2nnc(CN3CCCCC3)n2-c2ccc(Cl)cc2)cc1OC
[21] Cc1ccc(-c2cc(C(F)(F)F)n3nc(C(=O)NCCCn4ccnc4)cc3n2)cc1C
[22] Cc1ccc(COc2cccc3c2CCN(Cc2ccc(F)cc2)C3=O)cc1
[23] Cc1cc2cc(CCNC(=O)c3ccc(Br)o3)c(=O)[nH]c2cc1C
[24] O=C1[C@H]2[C@@H](c3ccc(F)cc3)N3C(=O)N(c4ccccc4)C(=O)[C@@]3(Cc3ccc(Cl)cc3)[C@H]2C(=O)N1C1CCCCC1
compound no.,17,18,19,20,21,22,23,24
Rango complex inh,-0.8%,0.6%,-0.7%,0.7%,2.1%,-3.0%,-2.6%,u
Rango dissoc inh,15.8%,1.9%,11.0%,14.7%,-4.2%,-1.3%,2.9%,-13.4%
GLA inh pH 4.5,-11.9,-5.3,x,-13.1,7.3,-3.4,5.9,x
miR-21 FLuc,-7.6%,-9.6%,-1.3%,-0.6%,-10.8%,15.4%,-3.1%,8.6%

[25] Cc1noc(C)c1CSCC(=O)N(C)CC(=O)Nc1ccccc1Cl
[26] CN(CC(=O)NCc1cccnc1)S(=O)(=O)c1ccc2c(c1)c(=O)n(C)c(=O)n2C
[27] CCOc1cc(/C=C(\C#N)C(N)=O)ccc1OS(=O)(=O)c1ccccc1
[28] Cc1cccc(OC(C)C(=O)Nc2ccc3c(c2)OCCO3)c1 (configuration not stated)
[29] CC1CN(C(=O)NCc2ccccc2)c2cc(Cl)ccc2O1 (configuration not stated)
[30] COC(=O)c1cc2ccsc2n1CC(=O)N1CCCc2ccccc21
[31] CCc1ccc(N2C(=O)Nc3ccc(Br)cc3C2(O)C(=O)NCCN(C)C)cc1 (configuration not stated)
[32] Nc1nc(SCc2ccc([N+](=O)[O-])cc2)c2ncn(C3OC(CO)C(O)C3O)c2n1 (configuration not stated)
compound no.,25,26,27,28,29,30,31,32
Rango complex inh,0.3%,2.2%,0.5%,0.3%,1.9%,0.0%,-1.8%,0.5%
Rango dissoc inh,3.4%,u,0.4%,-8.6%,0.5%,-5.1%,-11.6%,2.1%
GLA inh pH 4.5,x,-4.7,1.3,x,x,1.6,x,x
miR-21 FLuc,5.8%,1.3%,-9.5%,x,-1.1%&7.2%,-0.7%,-1.8%,-15.8%

Entries of single compounds, looked up by structure.
Cc1cccc(OC(C)C(=O)Nc2ccc3c(c2)OCCO3)c1 (configuration not stated) is listed as Rango complex inh: 0.3%; Rango dissoc inh: -8.6%; GLA inh pH 4.5: x; miR-21 FLuc: x
CCOc1cc(/C=C(\C#N)C(N)=O)ccc1OS(=O)(=O)c1ccccc1 is listed as Rango complex inh: 0.5%; Rango dissoc inh: 0.4%; GLA inh pH 4.5: 1.3; miR-21 FLuc: -9.5%

Carrying on:
[33] Cc1ccc(S(=O)(=O)NC(CC(C)C)C(=O)NCCCn2nc(C)cc2C)cc1 (configuration not stated)
[34] Cc1cccc(NC(=O)CN(C)S(=O)(=O)c2cccc3cccnc23)c1C
[35] Cc1ccc(-n2nnc3c(=O)n(CC(=O)N4CCCC4)cnc32)cc1
[36] CCOC(=O)c1c(NC(=O)c2cccnc2Cl)sc(C(=O)N(C)C)c1C
[37] COc1ccccc1NC(=O)CCS(=O)(=O)c1ccc2c(c1)oc(=O)n2C
[38] Cc1oc2cc(Br)c(O)c(Br)c2c1C(=O)c1ccccc1
[39] O=C(CN(Cc1ccco1)C(=O)CNS(=O)(=O)c1ccccc1)NC1CCCCC1
[40] O=C(Cc1nc2ccccc2[nH]c1=O)c1ccccc1
compound no.,33,34,35,36,37,38,39,40
Rango complex inh,0.9%,-0.2%,-2.1%,1.1%,0.6%,-0.3%,-2.7%,u
Rango dissoc inh,-5.9%,-5.0%,-9.9%,0.6%,2.7%,0.3%,-3.5%,u
GLA inh pH 4.5,x,12.4,-4.7,2.7,x,x,-2.7,-5.4
miR-21 FLuc,x,-10.6%,-0.6%,-31.5%,4.4%,-25.0%,-6.0%,-44.1%

[41] O=C(Nc1c(-c2cccs2)nc2ccccn12)c1ccccc1F
[42] CC(=O)c1ccc(N2CCN(C(C)C(=O)NC3CCCc4ccccc43)CC2)cc1 (configuration not stated)
[43] CC(O)Cc1nsc(NC(=O)c2ccc(Br)o2)n1 (configuration not stated)
[44] COc1cccc2cc(C(C)N(CCCN3CCOCC3)C(=O)Nc3ccc(Cl)cc3)oc12 (configuration not stated)
[45] c1coc(CN2CCN(C(c3cccs3)c3nnnn3C3CCCC3)CC2)c1 (configuration not stated)
[46] Cc1nn(C)c(C)c1Sc1ccccc1N
[47] CN(C)CCn1c(=O)n(C2CCCCC2)c(=O)c2c3c(sc21)CCCCC3
[48] NS(=O)(=O)c1ccc(CCNC(=O)C2CCN(S(=O)(=O)c3ccc(Br)s3)CC2)cc1
compound no.,41,42,43,44,45,46,47,48
Rango complex inh,-0.8%,0.8%,4.6%,-5.1%,-2.5%,0.5%,-4.3%,1.2%
Rango dissoc inh,7.1%,1.8%,0.4%,-11.1%,-17.4%,u,1.7%,0.6%
GLA inh pH 4.5,2.7,1.1,0.6,3.2,-4.5,10.0,x,-12.1
miR-21 FLuc,0.7%,-12.6%,-4.8%,-12.5%,-7.3%,-6.1%,x,-0.1%

[49] CCOc1ccc(CSc2nc(C)cc(COC)c2C#N)cc1OCC
[50] COc1ccc(/C=C2\SC(=S)N(CCC(=O)NC3=NCCS3)C2=O)cc1OC
[51] CCOc1cc(CNC(=O)CN2C(=O)c3ccccc3S2(=O)=O)ccc1OC
[52] S=C(NCCN1CCOCC1)Nc1cccc(Cl)c1
[53] COc1cc(OC)c(OC)cc1CNC(=O)c1cc(=O)[nH]c2ccccc12
[54] O=C1CC(=O)C(n2cncn2)C(c2c(F)cccc2Cl)C1 (configuration not stated)
[55] COc1ccc(S(=O)(=O)NCC(=O)N(CC(=O)NCC2CCCO2)c2c(C)cccc2C)cc1 (configuration not stated)
[56] COC(=O)[C@H](Cc1c[nH]c2ccccc12)NC(=O)Nc1ccccc1OC
compound no.,49,50,51,52,53,54,55,56
Rango complex inh,1.1%,-2.8%,-0.5%,1.0%,-1.2%,u,0.0%,2.9%
Rango dissoc inh,4.0%,-1.3%,4.4%,2.8%,-15.3%,u,-0.9%,-1.6%
GLA inh pH 4.5,x,-1.0,-0.6,-0.1,x,-4.5,4.6,-5.6
miR-21 FLuc,-8.3%,20.1%,1.3%,-14.1%,-0.5%,-1.4%,0.0%,4.9%

Among those listed so far, 2 contain a cyano group.
[27] CCOc1cc(/C=C(\C#N)C(N)=O)ccc1OS(=O)(=O)c1ccccc1
[49] CCOc1ccc(CSc2nc(C)cc(COC)c2C#N)cc1OCC
compound no.,27,49
Rango complex inh,0.5%,1.1%
Rango dissoc inh,0.4%,4.0%
GLA inh pH 4.5,1.3,x
miR-21 FLuc,-9.5%,-8.3%

Next entries.
[57] COc1ccc(C2=NN(c3ccccc3)C(=O)/C2=C\c2ccc(O)c(OC)c2)cc1
[58] O=C(O)c1cccc(NC(=O)c2ccc3c(c2)C(=O)N(c2ccccc2)C3=O)c1
[59] O=C(CCCOc1ccccc1)Nc1cccc(S(=O)(=O)N2CCCCCC2)c1
[60] Cc1noc(C)c1/C=N/Nc1ccccn1
[61] O=C(O)c1ccc(N/N=C/c2ccc(-c3cccc(Cl)c3)o2)cc1
[62] CCN1CCN(CC(=O)Nc2cc(C)on2)CC1
[63] CC(=O)NCC(=O)OCC(=O)c1ccc(C)cc1
[64] Cc1cc(=O)oc2cc(OCC(=O)N3CCN(C(=O)c4ccco4)CC3)ccc12
compound no.,57,58,59,60,61,62,63,64
Rango complex inh,0.4%,3.6%,0.7%,-1.7%,u,1.6%,-5.5%,-3.5%
Rango dissoc inh,-5.1%,1.1%,1.8%,2.9%,u,2.9%,-10.1%,4.8%
GLA inh pH 4.5,-20.4,x,x,-2.6,-1.2,1.3,4.9,4.9
miR-21 FLuc,3.9%,-4.8%,x,-9.6%,-96.7%,-0.8%,-1.3%,2.4%

[65] O=C1CC(Cc2ccccc2)C(=O)N1Cc1ccco1 (configuration not stated)
[66] CCCNCC(=O)Nc1cccc(S(=O)(=O)NC2=NCCCCC2)c1
[67] CN(C)C1=NC[C@H](Cc2ccccc2)N1CCc1ccc(F)cc1
[68] CCCOc1ccc2c3c(c(=O)oc2c1OCCC)CCC3
[69] C/C(=N\OC(=O)c1c(-c2ccccc2Cl)noc1C)c1nccs1
[70] CC(C)(C)NC(=O)NC(=O)C[n+]1ccc(Cc2ccc([N+](=O)[O-])cc2)cc1
[71] Nc1cccc(-c2cn3cc(C(F)(F)F)cc(Cl)c3n2)c1
[72] CCOc1ccccc1N/C(=C(/C(Cl)=C(Cl)Cl)[N+](=O)[O-])n1cncn1
compound no.,65,66,67,68,69,70,71,72
Rango complex inh,-2.5%,-0.5%,-0.3%,2.2%,-0.4%,0.3%,u,4.4%
Rango dissoc inh,-20.9%,-3.6%,-8.0%,-4.0%,-11.6%,15.9%,1.5%,-22.7%
GLA inh pH 4.5,-24.4,x,x,-3.4,-9.5,x,-1.3,-8.7
miR-21 FLuc,-2.3%,x,x,3.8%,0.1%,7.9%,-29.0%,-0.1%
